# Compound activity from PubChem.
# HIV Env fusion: blocks HIV Env-driven cell-cell fusion; HeLa-JRFL Env/CEM21 cell fusion, luciferase; inhibition, % at 12.3 µM; 360,000 compounds, 1.1% hits;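 active = mean replicate inhibition score of at least 50 and every replicate individually at or above 50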;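 note: 0% = plate neutral controls and 100% = maraviroc near 300 nM; one replicate is shown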
# * marks the source's active call; other numbers are inactive results; [ ] = remark or other dose. Only part of the results is shown (hit frequency here may not be typical).
Compound	HIV Env fusion
CO[C@@H]1CN(C)C(=O)c2ccc(NC(=O)Nc3cccc(F)c3)cc2OC[C@H](C)N(C(C)=O)C[C@@H]1C	-3[16.7 µM]
COc1ccc(-c2cc(NC(=O)Cc3c(C)[nH]c4ccccc34)ccc2Nc2cccnc2)cc1F	-54
O=C(NCc1ccccc1)[C@H]1CCCN1C(=O)[C@H]1CCCN1C(=O)N1CCOCC1	7
CCCCC1OC(CCc2ccccc2)CC2=C1C(=O)OC(C)(C)O2 (stereo unspecified)	-104
COC(=O)Cc1nnn2c1[C@H](C)[C@@H](OC)c1ccc(C(F)(F)F)cc1-2	-12
Nc1nc2c(ncn2[C@@H]2O[C@H](C(=O)N[C@@H](Cc3ccccc3)C(=O)NCc3ccccc3)[C@@H](O)[C@H]2O)c(=O)[nH]1	-23
COc1ccc(S(=O)(=O)N(C)C[C@@H]2Oc3c(NC(=O)Nc4ccccc4)cccc3C(=O)N([C@@H](C)CO)C[C@@H]2C)cc1	-6[16.7 µM]
CCCC(=O)Nc1ccc2c(c1)OC[C@H](C)N(CCC)C[C@H](C)[C@H](OC)CN(C)C2=O	13[16.7 µM]
O=C(C[C@@H]1C[C@@H]2c3cc(NC(=O)C4CCC4)ccc3O[C@@H]2[C@H](CO)O1)NC1CCCC1	-25[16.7 µM]
O=C(Nc1ccc2c(c1)[C@@H]1C[C@H](CC(=O)N3CCc4ccccc4C3)O[C@H](CO)[C@@H]1O2)c1ccc2c(c1)OCO2	16[16.7 µM]
COC(=O)C1=C(C)N(Cc2ccccc2)C(=S)NC1c1ccc(-c2ccccc2)cc1 (stereo unspecified)	28
O=C(NCc1ccccc1)[C@@H]1[C@@H](CO)[C@@H]2Cn3c(ccc(-c4cccc(F)c4)c3=O)[C@H]1N2	4[16.7 µM]
C[C@@H](NC(=O)[C@@H]1[C@@H](CO)[C@@H]2Cn3c(cccc3=O)[C@@H]2N1S(C)(=O)=O)c1ccccc1	3[16.7 µM]
COc1cccc(CN(C)C[C@@H]2OCc3cn(nn3)CCCC(=O)N([C@H](C)CO)C[C@@H]2C)c1	-3[16.7 µM]
COc1ccccc1S(=O)(=O)N(C)C[C@@H]1OCc2ccccc2-c2ccccc2C(=O)N([C@@H](C)CO)C[C@@H]1C	44[16.7 µM]
COCC(=O)N(C)C[C@H]1Oc2cc(C#CC3CCCC3)ccc2S(=O)(=O)N([C@H](C)CO)C[C@@H]1C	-1[16.7 µM]
CN1C(=O)c2cc(NC(=O)c3cccc(C(F)(F)F)c3)ccc2OC[C@H]2O[C@H](CC(=O)O)CC[C@H]21	-7[16.7 µM]
CC(C)NC(=O)N(C)C[C@@H]1OCCCC[C@@H](C)Oc2ccc(NC(=O)C3CCCCC3)cc2C(=O)N([C@H](C)CO)C[C@@H]1C	4[16.7 µM]
COC(=O)C[C@@H]1CC[C@H]2[C@@H](COc3ccc(NC(=O)Nc4cc(C)cc(C)c4)cc3C(=O)N2C)O1	12[16.7 µM]
COc1cccc(S(=O)(=O)N(C)C[C@@H]2OCc3ccccc3-c3ccccc3C(=O)N([C@@H](C)CO)C[C@H]2C)c1	-1[16.7 µM]
CCCNC(=O)Nc1ccc2c(c1)OC[C@H](C)N(Cc1ccccn1)C[C@H](C)[C@@H](OC)CN(C)C2=O	-6[16.7 µM]
CO[C@H]1CN(C)C(=O)c2cc(NC(=O)Nc3ccc(Cl)c(Cl)c3)ccc2OC[C@H](C)NC[C@H]1C	14[16.7 µM]
Cc1cc(C(=O)Nc2ccc3c(c2)C(=O)N(C)[C@H]2CC[C@@H](CC(=O)NC4CCCC4)O[C@H]2CO3)no1	-2[16.7 µM]
COc1ccc(S(=O)(=O)Nc2ccc3c(c2)[C@H]2C[C@@H](CC(=O)N(C)C)O[C@@H](CO)[C@H]2O3)cc1	-6[16.7 µM]
O=C(C[C@@H]1CC[C@@H]2[C@H](COC[C@@H](O)CN2Cc2ccc3c(c2)OCO3)O1)Nc1ccc(-c2ccccc2)cc1	34[16.7 µM]
O=C(N[C@H]1C=C[C@@H](CC(=O)N2CCCCC2)O[C@H]1CO)c1ccc2c(c1)OCO2	6[16.7 µM]
CO[C@H]1CN(C)C(=O)c2ccc(NS(=O)(=O)CC(F)(F)F)cc2OC[C@H](C)N(C)C[C@H]1C	8[16.7 µM]
COC(=O)c1c(-c2ccc(OC)cc2)c2c(c3c4cc(OC)ccc4n(S(=O)(=O)c4ccc(C)cc4)c13)C(=O)N(C)C2	3
CC(C)c1[nH]nc2c1C(c1cccc(C(F)(F)F)c1)N(c1ccccc1)C2=O (stereo unspecified)	0
C[C@@H](NC(=O)C[C@@H]1CC[C@@H]2[C@H](COC[C@H](O)CN2C(=O)Nc2cccc(Cl)c2)O1)c1ccccc1	-4[16.7 µM]

# A different layout for some results above.
O=C(C[C@@H]1C[C@@H]2c3cc(NC(=O)C4CCC4)ccc3O[C@@H]2[C@H](CO)O1)NC1CCCC1
  HIV Env fusion: -25[16.7 µM]
COc1ccc(S(=O)(=O)N(C)C[C@@H]2Oc3c(NC(=O)Nc4ccccc4)cccc3C(=O)N([C@@H](C)CO)C[C@@H]2C)cc1
  HIV Env fusion: -6[16.7 µM]
C[C@@H](NC(=O)C[C@@H]1CC[C@@H]2[C@H](COC[C@H](O)CN2C(=O)Nc2cccc(Cl)c2)O1)c1ccccc1
  HIV Env fusion: -4[16.7 µM]
O=C(C[C@@H]1CC[C@@H]2[C@H](COC[C@@H](O)CN2Cc2ccc3c(c2)OCO3)O1)Nc1ccc(-c2ccccc2)cc1
  HIV Env fusion: 34[16.7 µM]

# (further entries)
Compound	HIV Env fusion
CCCN1CCCCC(NC(=O)OC(C)(C)C)C1=O (stereo unspecified)	-6
C[C@H](CO)N1C[C@H](C)[C@@H](CN(C)Cc2ccc(-c3ccccc3)cc2)Oc2ccc(NC(=O)CCN3CCOCC3)cc2C1=O	-5[16.7 µM]
COC(=O)Cc1nnn2c1[C@@H](C)[C@@H](c1ccccc1Br)OC[C@H](C)C2	9
CC(C)c1cn(CC[C@@H]2CC[C@@H](NC(=O)C3CC3)[C@H](CO)O2)nn1	7[16.7 µM]
CC(C)NC(=O)N[C@@H]1CC[C@@H](CCN)O[C@@H]1CO	-11[16.7 µM]
Cc1ccc(S(=O)(=O)NC(CCCNC(=O)OCc2ccccc2)C(=O)O)cc1 (stereo unspecified)	-9
C[C@H]1CN([C@@H](C)CO)C(=O)Cc2cc(NC(=O)C3CC3)ccc2O[C@H]1CN(C)Cc1ccc(Cl)c(Cl)c1	2[16.7 µM]
CCCNC(=O)N1CC2(CN(S(=O)(=O)c3ccccc3)C2)c2c(n(C)c3cc(OC)ccc23)[C@H]1CO	-15[16.7 µM]
COC(=O)[C@]12C[C@H](CC(=O)NCc3cccs3)C(=O)N(Cc3ccccc3)C1=C[C@H](C(C)C)O[C@@H]2C1CC1	16
CCCCCCCCN1C(=O)[C@@H](CC(=O)NCCC(C)C)C[C@@]2(C(=O)OC)C1=C[C@H](C(C)(C)C)O[C@@H]2C	39
C[C@@H]1COc2cccc(NCCCN3CCOCC3)c2S(=O)(=O)N1	-9
CO[C@H]1CC[C@H]2CCOc3ccc(C#N)cc3C(=O)N(C)[C@@H](C)C(=O)N(C)C[C@@H]1O2	16[16.7 µM]
C[C@@H]1CN([C@H](C)CO)C(=O)c2ccccc2-c2ccccc2CO[C@@H]1CN(C)Cc1cccnc1	2[16.7 µM]
COC(=O)N1C[C@H](OCc2ccc3c(c2)OCO3)[C@H]2C[C@@H]1c1ccccc1O2	10
C[C@H](CO)N1C[C@H](C)[C@H](CN(C)S(C)(=O)=O)Oc2ccc(NC(=O)Nc3cccc4ccccc34)cc2CC1=O	-3[16.7 µM]
O=C(C[C@@H]1CC[C@@H]2[C@H](COC[C@H](O)CN2Cc2ccccc2F)O1)NC1CCC1	-14[16.7 µM]
CO[C@@H]1CN(C)C(=O)c2ccc(NC(=O)C3CCOCC3)cc2OC[C@@H](C)N(Cc2nccs2)C[C@@H]1C	-13[16.7 µM]
C[C@@H]1CN([C@H](C)CO)C(=O)c2cc(NC(=O)C3CCCCC3)ccc2O[C@@H]1CN(C)C(=O)NC1CCCCC1	-5[16.7 µM]
C[C@@H]1CN([C@@H](C)CO)C(=O)c2ccccc2-c2ccccc2CO[C@H]1CN(C)C(=O)CCC(F)(F)F	-6[16.7 µM]
COc1ccc(NC(=O)Nc2ccc3c(c2)[C@H]2C[C@H](CC(=O)NCC(F)(F)F)O[C@H](CO)[C@H]2O3)cc1	4[16.7 µM]
C[C@@H]1CN([C@@H](C)CO)C(=O)c2ccccc2-c2ccccc2CO[C@@H]1CN(C)C(=O)CCN(C)C	-16[16.7 µM]
CN1[C@@H]2Cn3c(ccc(/C=C/c4ccccc4)c3=O)[C@H]1[C@@H](C(=O)NC1Cc3ccccc3C1)[C@@H]2CO	-14[16.7 µM]
CN(C)C(=O)c1ccc(-c2cccc(-c3nc(C(=O)NCc4ccccc4)cc4c3[C@@H](CCO)N([S@](=O)C(C)(C)C)C4)c2)cc1	8[16.7 µM]
CN(C)C(=O)C[C@H]1CC[C@@H]2[C@H](COC[C@H](O)CN2C(=O)C2CCCC2)O1	3[16.7 µM]
COc1ccccc1CNC(=O)C[C@H]1C[C@@H]2c3cc(NC(=O)C4CCOCC4)ccc3O[C@@H]2[C@H](CO)O1	-19[16.7 µM]
O=C(C[C@H]1C=C[C@@H](NC(=O)C2CC2)[C@H](CO)O1)NC1CCC1	-13[16.7 µM]
CN(C)CCCNC(=O)[C@H]1[C@H](CO)[C@H]2Cn3c(ccc(C4=CCCC4)c3=O)[C@H]2N1CCC(F)(F)F	57*[16.7 µM]
CC(C)NC(=O)N[C@@H]1CC[C@H](CCN)O[C@@H]1CO	-11[16.7 µM]
CCCCCCCCN1C(=O)[C@@H](CC(=O)NCCc2ccccc2OC)C[C@@]2(C(=O)OC)C1=C[C@H](C1CCCC1)O[C@@H]2C	16
CC(C)NC(=O)Nc1ccc2c(c1)CC(=O)N([C@H](C)CO)C[C@H](C)[C@H](CN(C)S(=O)(=O)c1ccccc1)O2	65*[16.7 µM]

# New compounds follow
Compound	HIV Env fusion
C[C@@H]1CN([C@H](C)CO)C(=O)c2cc(NS(=O)(=O)c3ccccc3)ccc2O[C@@H]1CN(C)S(=O)(=O)c1ccc(Cl)cc1	-33[16.7 µM]
C[C@H](CO)N1C[C@H](C)[C@@H](CN(C)Cc2ccc(Oc3ccccc3)cc2)Oc2ccc(NC(=O)CCCN(C)C)cc2C1=O	-8[16.7 µM]
CCCC#Cc1ccc2c(c1)O[C@@H](CN(C)C(=O)Nc1ccccc1F)[C@H](C)CN([C@H](C)CO)S2(=O)=O	1[16.7 µM]
O=C(N[C@H](C(=O)N1CCC[C@H]1C(=O)NC1CCCC1)c1ccccc1)c1ccc(Cl)c(Cl)c1	25
CC(C)NC(=O)Nc1ccc2c(c1)CC(=O)N([C@H](C)CO)C[C@H](C)[C@H](CN(C)C(=O)NC1CCCCC1)O2	2[16.7 µM]
CO[C@H]1CN(C)C(=O)c2cc(NC(=O)C3CC3)ccc2OC[C@@H](C)N(C(=O)C2CCOCC2)C[C@H]1C	0[16.7 µM]
CC(=O)C1=C(C)NC(=S)NC1c1ccc(F)cc1 (stereo unspecified)	-1
C[C@H](NC(=O)C[C@@H]1C[C@H]2c3cc(NC(=O)Nc4ccc(C(F)(F)F)cc4)ccc3O[C@H]2[C@H](CO)O1)c1ccccc1	-19[16.7 µM]
COCCNC(=O)C[C@@H]1CC[C@H]2[C@@H](COC[C@H](O)CN2Cc2cccc(-c3ccncc3)c2)O1	11[16.7 µM]
O=C(C[C@@H]1CC[C@@H]2[C@H](COC[C@H](O)CN2Cc2ccc3c(c2)OCO3)O1)N1CCCCC1	3[16.7 µM]
COc1ccc(C[C@@H]2CCn3cc(nn3)COC[C@@H](C(C)C)NC2=O)cc1	18[16.7 µM]
COc1ccc(NC(=O)Nc2ccc3c(c2)CC(=O)N([C@@H](C)CO)C[C@@H](C)[C@@H](CN(C)S(=O)(=O)c2ccccc2)O3)cc1	-5[16.7 µM]
CC(C)C[C@H](NS(=O)(=O)c1ccc(F)cc1F)C(=O)N1CCC[C@H]1C(=O)NCc1ccccc1	-50
CO[C@H]1CC[C@@H]2CCN(C)C(=O)CCCN(C)C(=O)c3cc(C#N)ccc3OC[C@H]1O2	-20[16.7 µM]
CO[C@H]1CN(C)C(=O)c2ccc(NC(=O)C3CC3)cc2OC[C@H](C)N(Cc2ccncc2)C[C@@H]1C	5[16.7 µM]
COc1ccccc1-c1ccc2n(c1=O)C[C@H]1[C@H](CO)[C@@H](C(=O)NCc3ccccc3Cl)N[C@@H]21	9[16.7 µM]
CO[C@H]1CN(C)C(=O)c2cccc(C#N)c2OC[C@@H]2O[C@@H](CC[C@H]2OC)CCN(C)C(=O)[C@@H]1C	-5[16.7 µM]
COc1ccc(S(=O)(=O)Nc2cccc3c2O[C@@H](CN(C)C(=O)Nc2cccc4ccccc24)[C@@H](C)CN([C@@H](C)CO)C3=O)cc1	13[16.7 µM]
COC(=O)C[C@@H]1CC[C@@H]2[C@H](COc3ccc(NC(=O)Nc4cc(C)cc(C)c4)cc3C(=O)N2C)O1	-5[16.7 µM]
CCCNC(=O)N1C[C@H](C)[C@H](OC)CN(C)C(=O)c2ccc(NC(=O)C3CCC3)cc2OC[C@H]1C	-2[16.7 µM]
CCCCCCC=C1CCC(CN2CCCC2)C1=O (stereo unspecified)	-16

# 2 entries from above, as labelled records:
CN(C)CCCNC(=O)[C@H]1[C@H](CO)[C@H]2Cn3c(ccc(C4=CCCC4)c3=O)[C@H]2N1CCC(F)(F)F
  HIV Env fusion = 57*[16.7 µM]

CC(C)NC(=O)N[C@@H]1CC[C@H](CCN)O[C@@H]1CO
  HIV Env fusion = -11[16.7 µM]
